# miR-21 reporter: raises the signal of a miR-21 reporter. HeLa miR-21 FLuc reporter, luciferase, 48 h. Potency, µM (series often up to 38.3 µM), for inactives: at the highest dose reporter change, positive = more light. 340,000 tested, under 10 active. AID 2288; active = well fitted rising curve with a large enough effect; inconclusive = small, poorly fitted or top-dose-only effect; inactive = no such curve, though single readings can be large or run the other way;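 further: % of control where 0% means no effect; miR-21 action dims this reporter so a rising signal means less miR-21 action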
#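 Using DMEM plus 10% FBS, HeLa miR-21-FLuc cells are incubated with test compounds (final up to about 40uM) for 48 hours; firefly luciferase signal is then imaged following reagent-mediated lysis.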
# Rango complex inh: Rango-importin beta binding inhibition. Potency, µM (highest dose often 92.2 µM), for inactives: top-dose inhibition of complex formation. 340,000 compounds, 0.031% hits. Rango CFP/YFP FRET sensor + importin beta, 45 min. Q14974. AID 540263; active = rising FRET ratio curve, often small or poorly fitted; inconclusive = mostly compound fluorescence or quenching in the first reads; inactive = flat curves in all reads;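 further: potency means the concentration at half of the fitted maximal effect; 0% = DMSO wells and 100% = buffer wells lacking importin beta; nearly all actives have a fitted effect of over 15% in size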
# Target sequence (Q14974 whole entry, looked up): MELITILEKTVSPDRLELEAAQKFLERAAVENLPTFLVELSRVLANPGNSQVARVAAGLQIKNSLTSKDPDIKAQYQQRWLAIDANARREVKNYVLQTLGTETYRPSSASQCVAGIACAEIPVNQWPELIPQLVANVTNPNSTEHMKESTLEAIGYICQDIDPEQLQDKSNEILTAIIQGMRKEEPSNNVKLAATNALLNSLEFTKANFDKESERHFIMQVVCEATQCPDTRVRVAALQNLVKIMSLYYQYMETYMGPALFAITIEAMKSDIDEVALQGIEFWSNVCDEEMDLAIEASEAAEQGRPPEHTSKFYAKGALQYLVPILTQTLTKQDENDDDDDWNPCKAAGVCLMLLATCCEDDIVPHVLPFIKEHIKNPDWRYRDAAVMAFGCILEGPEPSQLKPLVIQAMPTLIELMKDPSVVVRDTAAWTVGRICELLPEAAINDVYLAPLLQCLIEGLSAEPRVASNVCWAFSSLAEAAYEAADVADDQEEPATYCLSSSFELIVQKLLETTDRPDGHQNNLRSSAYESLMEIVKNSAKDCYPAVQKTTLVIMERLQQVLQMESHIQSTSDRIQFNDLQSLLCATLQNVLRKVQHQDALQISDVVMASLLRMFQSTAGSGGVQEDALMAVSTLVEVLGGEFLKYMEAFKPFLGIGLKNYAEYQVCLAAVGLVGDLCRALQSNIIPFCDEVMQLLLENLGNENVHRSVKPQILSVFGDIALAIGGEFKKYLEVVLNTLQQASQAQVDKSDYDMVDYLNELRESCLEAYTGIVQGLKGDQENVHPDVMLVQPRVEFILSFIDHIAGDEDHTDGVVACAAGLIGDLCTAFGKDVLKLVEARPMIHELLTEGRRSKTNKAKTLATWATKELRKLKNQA
#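 FRET biosensor Rango (snurportin 1 IBB between N-terminal EYFP and C-terminal Cerulean), 50 nM in PBS/1 mM DTT/0.02% Tween-20/0.1% BSA, preincubated 5 min RT with compound; 0.125 microM importin beta added, 45 min RT, CFP/YFP FRET ratio read.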
# Rango dissoc inh: inhibition of RanGTP-driven Rango-importin beta dissociation | O95149+P62826 | Biochemical FRET Rango-importin beta, RanGTP-induced dissociation | 340,000 compounds, 0.071% hits | Potency, µM (series often up to 46.1 µM), for inactives: at the top dose activity change, negative = inhibition | AID 540253; active means falling FRET ratio curve, often poorly fitted, with flat reads before Ran was added; inconclusive means other falling curves, or compound fluorescence or quenching; inactive means flat or rising ratio curve;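 further: potency means the concentration at half of the fitted maximal effect; % of control where 0% means no effect; nearly all actives have a fitted effect of over 45% in size; -100% = wells without RanGTP and RCC1; the record marks most hits as doubtful in a second field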
#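 Compounds preincubate 5 min with complex of recombinant Rango and importin beta in PBS with 1 mM DTT. Ran (0.6 uM) loaded with 2 mM GTP plus 0.2 uM RCC1 starts dissociation; FRET is recorded 45 min later.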
# GLA inh pH 4.5: alpha-galactosidase A (human) inhibition, pH 4.5; P06280; purified enzyme, 4-MU-alpha-Gal fluorescence, pH 4.5; activity change, negative = inhibition, % at 105 µM; 230,000 tested, under 10 active; AID 1467; inconclusive = small, poorly fitted or top-dose-only inhibition, or a rising curve; inactive = flat fitted curve, though single readings scatter; no compound was filed as active;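 further: 0% = full activity with enzyme and -100% = basal without enzyme; dose as in the result columns while the protocol names 77 µM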
# Numbers without * were called inactive; ? = inconclusive; · = not tested or not shown; & = joins results of further samples; [ ] = dose if it differs, or a comment. Some of the compounds tested. The share of hits here may be higher or lower than overall.
SMILES,miR-21 reporter,Rango complex inh,Rango dissoc inh,GLA inh pH 4.5
O=C(COC(=O)CC(c1ccccc1)c1ccccc1)Nc1cccc(F)c1,0%,-4.6%,41%,-2
CCc1ccc(-c2cc(C)no2)cc1S(=O)(=O)N1CCN(c2ccccc2)CC1,23%,-2.3%,2%,·
Cc1cccc(-n2ccc(=O)c(C(=O)Nc3ccc(S(=O)(=O)Nc4onc(C)c4C)cc3)n2)c1,-9%,-0.9%,-10%,·
O=C(Nc1ccccc1N1CCCCC1)c1cccc(F)c1,3%,1.4%,-10%,-4
O=C(NNC(=O)c1cccs1)c1ccc2ccccc2c1,-54%,-0.1%,-12%,-5
COc1ccc(S(=O)(=O)N2CCC(C(N)=O)CC2)cc1C(=O)N1CCCCCC1,-2%,?,-7%,·
CCOC(=O)c1nnn(CC(=O)Nc2cc(F)ccc2F)c1C(=O)OCC,0%,1.3%,1%,5
O=C(O)c1ccc(NCCC2=CCCCC2)c([N+](=O)[O-])c1,-13%,-1.3%,2%,-10
CC1=NN(c2ccc(C)cc2)C(=O)/C1=C/c1ccc(-c2cc([N+](=O)[O-])ccc2O)o1,-2%,-3.4%,-12%,·
COc1ccccc1NC(=O)C1CCCN1S(=O)(=O)c1cccc2nsnc12 (stereo not given),-11%,6.2%,6%,·
O=C1CCc2cc(S(=O)(=O)Nc3ccccc3)cc3c2N1CCC3,·,1.0%,2%,·
OCc1cn(-c2ccccc2)nc1-c1cccnc1,-5%,0.5%,11%,2
CCOc1cc(N2CCOCC2)c(OCC)cc1NC(=O)c1nc2nc(C)cc(C)n2n1,-10%,4.2%,14%,-9
CC(C)Oc1ccc(C(CCNCc2ccc(O)cc2)c2ccccc2)cc1 (stereo not given),?,0.0%,2%,·
Cc1ccccc1N(C)S(=O)(=O)c1ccc2[nH]cc(C(=O)NCC3CCCO3)c(=O)c2c1 (stereo not given),10%,2.2%,19%,-19
Cn1cnc(S(=O)(=O)Nc2ccc(OC(F)(F)F)cc2)c1,-4%,-0.3%,25%,-1[21.1 µM]
COc1cc([N+](=O)[O-])ccc1N,-15%,-0.5%,2%,-7
CC1CN(S(=O)(=O)c2cc(C(=O)N(C)Cc3cccs3)ccc2Cl)CC(C)O1 (stereo not given),·,-0.7%,1%,·
COc1ccc(C(=O)N2CCCC2)cc1S(=O)(=O)N1CCOCC1,-1%,1.5%,7%,8
CC1CC(C)CN(CCCNC(=O)c2ccc(N3CCCC3=O)cc2)C1 (stereo not given),-2%,-6.2%,2%,·
Cc1cccc(-n2ncc3c2CCCC3NC(=O)CN2CCOC2=O)c1C (stereo not given),-5%,0.7%,2%,·
CC(=O)OCC(=O)N1N=C(c2ccc3ccccc3c2)CC1c1ccccc1 (stereo not given),-15%,2.0%,-10%,-2
Cc1ccc(CNC(=O)COC(=O)Cn2nc(C)c([N+](=O)[O-])c2C)cc1,-1%,-2.7%,1%,0
CC(=O)NCCc1nc2cc(NC(=O)c3cccc([N+](=O)[O-])c3)ccc2n1C,-37%,-3.0%,-5%,·
CCn1c(SCC(=O)N/N=C/c2cc(OC)c(O)c(OC)c2)nc2ccccc21,0%,-2.9%,-6%,-14
CCOC(=O)Cc1csc(NC(=O)c2cccc([N+](=O)[O-])c2)n1,-5%,-3.5%,-20%,·
O=C(NCCc1cccc(F)c1)C1CCC(=O)N(C2CCCCCC2)C1 (stereo not given),-8%,1.1%,17%,·
O=C(COc1ccccc1CNCc1ccccc1)Nc1ccccc1,14%,4.3%,-2%,-3
Cc1ccc(C(C)C)c(OCCNC(=O)c2ccccc2O)c1,18%,-0.5%,?,·
CCNC(=S)Nc1c(C)n(C)n(-c2ccccc2)c1=O,0%,-0.9%,-6%,-3
CCOc1ccc(-c2c(C(=O)N/N=C/c3ccc(C)cc3)nnn2-c2nonc2N)cc1,-1%,0.0%,3%,-6
CC(C)CNC(=O)NC(=O)COC(=O)c1cc([N+](=O)[O-])ccc1NCc1ccccc1Cl,-5%,·,·,-13
Cc1[nH]n(-c2ccccc2)c(=O)c1/C=N/NC(=O)c1cccc([N+](=O)[O-])c1,-3%,0.5%,1%,-1
C[C@@H]1CN(C2CCN(Cc3nc(C(c4ccccc4)c4ccccc4)no3)CC2)C[C@H](C)O1,-1%,-4.8%,10%,-4
NS(=O)(=O)c1ccc(CCn2c(=S)[nH]c3ccccc3c2=O)cc1,2%,-1.6%,16%,-9
CC/C=C\[C@H](O)[C@H](O)C1=C(C)C(=O)[C@]2(O1)C(=O)N[C@@](OC)(C(=O)c1ccccc1)C2O (stereo not given in full),17%,?,-3%,2
CCOC(=O)c1c(NC(=O)COC(=O)c2c(C)noc2C)sc2c1CCC2,-15%,-2.9%,9%,-5
O=C(COc1ccc([N+](=O)[O-])cc1)Nc1cccc(C(=O)Nc2ccccc2C(=O)O)c1,-3%,-2.5%,-7%,·
CCNC(=O)CC1C(=O)N(c2ccc(C)cc2)C(=O)N1CCC(C)C (stereo not given),7%&-4%,4.1%,-13%,·
O=C(Nc1ccc2c(c1)OCCO2)C1CCN(S(=O)(=O)c2ccccc2)CC1,-3%,0.5%,-1%,4
COc1ccc(C(=O)/C(=C\c2ccco2)N2C=CC=CC2=C(C#N)C#N)cc1,?,?,-5%,-24
COc1cc(/C=N/NC(=O)c2cccc(S(=O)(=O)N3CCCC3)c2)ccc1O,·,4.8%,3%,·
CC(C)n1nc(C(=O)Nc2cccc(S(=O)(=O)N3CCCCC3)c2)c2ccccc2c1=O,·,-1.1%,4%,·
Cc1ccc(/C=N/NC(=O)CNC(=O)c2cccs2)cc1,-19%,0.0%,23%,·
COc1ccc(NC(=O)CCCCCN2C(=O)c3cccc([N+](=O)[O-])c3C2=O)c(OC)c1,0%,-4.2%,11%,·
O=C(O)C1CC=CCC1C(=O)N1CC=C(c2ccccc2)CC1 (stereo not given),-12%,-1.1%,0%,6[21.1 µM]
N#Cc1ccccc1Cn1cc(/C=C/[N+](=O)[O-])c2ccccc21,?,?,2%,-6
COc1ccc(S(=O)(=O)N2CCOCC2)cc1C(=O)NCc1ccccc1CN1CCCC1,·,-3.6%,-6%,·
COCCn1c(Sc2ccc(C)cc2)nc2c1c(=O)[nH]c(=O)n2C,-30%,-1.1%,-3%,-9
COc1cc(C(=O)OCC(=O)N(C)Cc2ccccc2)cc(OC)c1OC,-10%,1.6%,4%,-13
O=C(NCCCn1ccnc1)c1noc2c1CCc1ccccc1-2,-24%,3.1%,1%,6
Cc1ccccc1NC(=S)NC(C)C(c1cccs1)N1CCOCC1 (stereo not given),2%,?,-7%,-1
O=C(NCCc1ccccc1)c1cnc(Cl)c(Cl)c1,-40%,2.4%,-18%,·
Cc1ccc(C(=O)COC(=O)C2CCC2)cc1,0%,0.0%,36%,·
CCOC1=NN(c2ncc(C(F)(F)F)cc2Cl)C(=O)C1,-2%,?,-8%,12
Cc1cc(C)nc(SCC(=O)OCN2C(=O)c3ccccc3C2=O)n1,1%,-1.6%,-5%,·
OCC1(Cc2ccccc2)CCN(Cc2ccc(C(F)(F)F)cc2)CC1,15%,-2.6%,-13%,-11
O=C(Cc1cc(=O)[nH]c(=O)[nH]1)NCC1CCCO1 (stereo not given),-8%,?,?,-10
COCCN(C(=O)COC(=O)c1cc2c(s1)CCC2)c1c(N)n(Cc2ccccc2)c(=O)[nH]c1=O,·,?,-1%,·
CC(C)n1c(O)c(N=Nc2ccc(Cl)c(C(=O)O)c2)c2ccccc21,-26%,?,?,-4

# Five structures already listed, arranged by count of non-hydrogen atoms, smallest number first.
SMILES,miR-21 reporter,Rango complex inh,Rango dissoc inh,GLA inh pH 4.5
O=C(O)c1ccc(NCCC2=CCCCC2)c([N+](=O)[O-])c1,-13%,-1.3%,2%,-10
Cc1ccc(C(C)C)c(OCCNC(=O)c2ccccc2O)c1,18%,-0.5%,?,·
COc1cc(C(=O)OCC(=O)N(C)Cc2ccccc2)cc(OC)c1OC,-10%,1.6%,4%,-13
CC1=NN(c2ccc(C)cc2)C(=O)/C1=C/c1ccc(-c2cc([N+](=O)[O-])ccc2O)o1,-2%,-3.4%,-12%,·
O=C(COc1ccc([N+](=O)[O-])cc1)Nc1cccc(C(=O)Nc2ccccc2C(=O)O)c1,-3%,-2.5%,-7%,·

# Going on with the list.
SMILES,miR-21 reporter,Rango complex inh,Rango dissoc inh,GLA inh pH 4.5
CSc1ncc(S(=O)(=O)c2ccccc2)c(=O)[nH]1,0%,3.3%,-7%,3
O=C1OCCN1C(=O)[C@H]1[C@H](c2ccc(Cl)cc2)C(c2cccc(Cl)c2)=NN1c1ccccc1,7%,?,?,9&1
CSc1nc2c(c(-c3ccc(O)cc3)c1C#N)CCC2,-5%,?,?,-9
Cc1oc(-c2ccc3ccccc3c2)nc1CN(C)C(C)c1ccncn1 (stereo not given),0%,-4.2%,-12%,-2
CC(C)c1nnc(SCC(=O)N2CCOCC2)n1C,-2%,2.4%,-3%,-4
COc1cccc(CNS(=O)(=O)c2ccc3c(c2)N(C)CCO3)c1,3%,-3.1%,0%,·
CCN(CC)CCn1c(NC(=O)c2ccccc2O)nc2ccccc21,-1%,-6.9%,-16%,·
COc1ccc(N2CCN(C(=O)c3cccc(S(=O)(=O)N4CCOCC4)c3)CC2)cc1,·,0.8%,-9%,·
COc1ccccc1NC(=O)CCN1CCCCCC1,-3%,0.0%,7%,4
Cc1csc(NC(=O)CSc2nnc(-c3ccccc3)o2)n1,-17%,0.7%,-7%,-6
O=[N+]([O-])c1ccccc1OCCCN1CCOCC1,-24%,0.6%,13%,8
CCN(CC)CCNC(=O)C(=O)NCC1OCCN1S(=O)(=O)c1ccc2c(c1)OCCO2 (stereo not given),0%,1.6%,1%,1
CCOc1cc(/C=N/Nc2nncc(-c3ccccc3)n2)ccc1O,4%,-4.7%,-1%,-13
C/C(=N\NC(=O)C(C)Oc1ccc([N+](=O)[O-])cc1)c1ccccn1 (stereo not given),20%,-0.3%,9%,-1
Cc1nc2ncnn2c(C)c1CCC(=O)N1CCN(Cc2ccccc2)CC1,0%,3.5%,-12%,0
Cc1ccc(CS(=O)Cc2ccc(C(=O)NCc3ccccc3Cl)o2)cc1 (stereo not given),-1%&0%,0.9%,-10%,·
Cc1ccc(S(=O)(=O)N2CCCC2C(=O)OCC(=O)Nc2ccc3c(c2)OCO3)cc1 (stereo not given),1%,-2.2%,-7%,0
O=C1CCCC2=C1C(c1ccc3c(c1)OCO3)c1c([nH]n(-c3ccccc3)c1=O)N2 (stereo not given),-10%,-4.2%,-8%,-10
COc1ccc(C(=O)Cc2cnn(-c3ccccc3)c2)c(O)c1,-49%,2.0%,4%,-1
COc1cc(/C=N/NC(=O)c2ccc(COc3cc(C)ccc3C(C)C)cc2)cc(OC)c1O,16%,1.1%,5%,0

# Reprinted from the part before: six compounds, then new ones.
SMILES,miR-21 reporter,Rango complex inh,Rango dissoc inh,GLA inh pH 4.5
Cc1nc2ncnn2c(C)c1CCC(=O)N1CCN(Cc2ccccc2)CC1,0%,3.5%,-12%,0
Cc1ccc(CS(=O)Cc2ccc(C(=O)NCc3ccccc3Cl)o2)cc1 (stereo not given),-1%&0%,0.9%,-10%,·
Cc1ccc(S(=O)(=O)N2CCCC2C(=O)OCC(=O)Nc2ccc3c(c2)OCO3)cc1 (stereo not given),1%,-2.2%,-7%,0
O=C1CCCC2=C1C(c1ccc3c(c1)OCO3)c1c([nH]n(-c3ccccc3)c1=O)N2 (stereo not given),-10%,-4.2%,-8%,-10
COc1ccc(C(=O)Cc2cnn(-c3ccccc3)c2)c(O)c1,-49%,2.0%,4%,-1
COc1cc(/C=N/NC(=O)c2ccc(COc3cc(C)ccc3C(C)C)cc2)cc(OC)c1O,16%,1.1%,5%,0
O=C(NCCc1ccccc1)c1ccc(=O)oc1,-3%,0.0%,2%,-4
Cc1ccc(OCc2nnc(SCC(=O)O)n2-c2ccccc2)cc1,·,-0.3%,14%,·
O=C(NC1CCCCC1)c1ccc(Cn2cc(Cl)cn2)cc1,-13%,-0.5%,-15%,-1
Cc1nc(-c2cccc(Br)c2)ccc1C(=O)O,-1%,-1.9%,-3%,3
Cc1ccc(NC(=O)CN2CCN(Cc3ccccc3)CC2)cc1F,-2%,-1.6%,2%,·
Cc1cc(C)c(C)c(OCCCCN2CCCCC2)c1,-2%,1.6%,-8%,·

# Screening results as filed in PubChem.
